# Screening data: PubChem, National Center for Advancing Translational Sciences (NCATS)
# Cruzain inh Det – blocks cruzain activity in presence of Triton detergent. 200,000 compounds, 0.43% hits. P25779. purified cruzain, Z-FR-AMC fluorescence, 0.01% Triton. Potency, µM, inactives show max response, negative = inhibition, hits mostly inhibitors. AID 1478;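 also: plate controls were neutral wells for no effect and buffer without enzyme for full effect; nearly all actives have a fitted effect of over 40% in size; top concentration of the series not given in the record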
# Target sequence (P25779 123-467 limits assumed): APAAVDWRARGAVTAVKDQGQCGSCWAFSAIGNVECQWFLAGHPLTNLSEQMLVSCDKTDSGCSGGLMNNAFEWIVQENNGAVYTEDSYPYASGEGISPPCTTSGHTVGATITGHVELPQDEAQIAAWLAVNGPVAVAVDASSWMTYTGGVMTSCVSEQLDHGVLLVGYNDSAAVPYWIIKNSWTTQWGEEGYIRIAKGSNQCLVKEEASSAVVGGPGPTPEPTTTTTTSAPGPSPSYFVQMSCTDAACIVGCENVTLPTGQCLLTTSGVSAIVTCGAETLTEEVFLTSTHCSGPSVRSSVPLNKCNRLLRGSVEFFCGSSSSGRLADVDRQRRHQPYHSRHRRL
#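 Cruzain (1.5 nM) preincubated 15 min at RT with compound in 100 mM sodium acetate pH 5.5, 5 mM DTT, 0.01% Triton X-100. Reaction started with 2 uM Z-FR-AMC; AMC fluorescence (ex 360/em 450 nm) change over 60 s gave rate.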
# Marburg entry inh – blocks Marburg virus binding to or entry into cells; 300,000 compounds, 1.8% hits; Potency, µM (titrated, usually from 37.8 µM), inactives show at the top dose activity change, negative = inhibition, hits mostly inhibitors; Marburg virus pseudotyped entry inhibition, cell reporter; control for the full effect not named in the record; about a third of the inactives were read at about 46 µM; AID 540276; active = well fitted inhibition curve with a large enough effect; inconclusive = small, poorly fitted or top-dose-only effect, or effect the other way; inactive = flat fitted curve, though single readings scatter; tested in HEK293 cells; about a fifth of its hits are not listed in these tables; also: % is scaled to controls: 0 for no effect and ±100 for the full control effect; luciferase read-out
# Cruzain noTriton – cruzain (T. cruzi) inhibition without detergent. P25779. AID 1476. purified cruzain, Z-FR-AMC fluorescence, no detergent. 200,000 compounds, 2.3% hits. Potency, µM, for the others: max response, negative = inhibition, actives largely listed as inhibitors;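 also: plate controls were enzyme without inhibitor for no effect and buffer without enzyme for full effect; nearly all actives have a fitted effect of over 40% in size; top concentration of the series not given in the record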
#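 Detergent-free condition (0.00005% Triton X-100) in acetate buffer pH 5.5 with DTT. 1.5 nM enzyme and compound were pre-mixed 15 min, then 2 uM Z-FR-AMC substrate added; reaction progress from fluorescence change between first and third reads (60 s).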
# NS1 inh – inhibitors of influenza NS1 protein function; S. cerevisiae slowed by influenza A NS1, growth recovery by OD600; Potency, µM (top dose mostly 46.1 µM), for the others: at the top dose activity, positive = more growth; 270,000 compounds, 0.4% hits; AID 2326; active means well fitted rising curve with a large enough effect; inconclusive means small, poorly fitted or top-dose-only effect; inactive means no such curve, though single readings can be large or run the other way; also: nearly all actives have a fitted effect of over 50% in size
#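 Recovery from NS1-induced slow growth read by OD600 in budding yeast switched to galactose assay medium (pH 6.0, -URA) at 1:100 dilution. Compound 23 nl per well; the matching strain lacking NS1 serves as control.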
# StopGo reporter – lowers the luciferase signal of an FMDV 2A StopGo reporter; human cells with a luciferase reporter of 2A StopGo recoding; control for the full effect not named in the record; Potency, µM (highest dose often 57.9 µM), without a hit: at the highest dose signal change, negative = less light; 410,000 compounds, 1.2% hits; active = well fitted falling curve with a large enough effect; inconclusive = small, poorly fitted or top-dose-only effect; inactive = no such curve, though single readings can be large or run the other way; tested in HEK293T cells; also: % is scaled to controls: 0 for no effect and ±100 for the full control effect; nearly all actives have a fitted effect of over 45% in size; luciferase light after 4 h
# SARS PLP yeast – inhibitors of SARS-CoV papain-like protease in yeast; 330,000 compounds, 0.19% hits; Potency, µM (top dose mostly 32.9 µM), inactives show at the highest dose activity, positive = growth rescue; AID 485353; S. cerevisiae expressing SARS-CoV PLpro, growth rescue; control for the full effect not named in the record; active means well fitted rising curve with a large enough effect; inconclusive means small, poorly fitted or top-dose-only effect; inactive means no such curve, though single readings can be large or run the other way; also: 0% is about no effect; nearly all actives have a fitted effect of over 55% in size; growth read by luminescence after 48 h
# RE007 growth inh – less growth of the S. pombe RE007 Vpr strain. 360,000 compounds, 0.21% hits. S. pombe RE007 Vpr strain, BacTiter-Glo ATP luminescence, 24 h; control for the full effect not named in the record. Potency, µM (series often up to 92.2 µM), without a hit: top-dose activity change, negative = less growth; active = well fitted falling curve with a large enough effect; inconclusive = small, poorly fitted or top-dose-only effect; inactive = no such curve, though single readings can be large or run the other way;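 also: % is scaled to controls: 0 for no effect and ±100 for the full control effect; nearly all actives have a fitted effect of over 50% in size; the assay follows cell death caused by Vpr and the record does not say whether a fall means rescue or toxicity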
#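 Fission yeast strain RE007, carrying one chromosomally integrated HIV-1 vpr copy, was seeded at OD 0.01 in PMG+AL medium with 23 nL pinned compound. After 24 h at 30 °C and 99% humidity, viability was read by BacTiter-Glo luminescence.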
# Lassa entry inh – inhibitors of Lassa virus binding or cell entry; Lassa virus pseudotype entry inhibition, cell reporter; control for the full effect not named in the record; Potency, µM (doses to about 37.9 µM), inactives show top-dose activity change, negative = inhibition, hits mostly inhibitors; 300,000 compounds, 1.2% hits; active means well fitted inhibition curve with a large enough effect; inconclusive means small, poorly fitted or top-dose-only effect, or effect the other way; inactive means flat fitted curve, though single readings scatter; tested in HEK293 cells; also: % is scaled to controls: 0 for no effect and ±100 for the full control effect; nearly all actives have a fitted effect of over 50% in size; luciferase read-out
# An asterisk follows results filed as active; ? = inconclusive; · = not tested or not shown; [ ] = dose if it differs, or a comment. Unless noted, calls follow the shape of the dose curve; as a rule, active = well fitted curve in the direction sought with a large enough effect; inconclusive = small, poorly fitted or top-dose-only effect, or another doubt; inactive = no such curve, though single readings can be large; an effect the other way counts as inactive or inconclusive. Potency is read from the fitted curve at half-maximal effect. An unsorted share of the library, and some 4.7% of all compounds hit somewhere here.
SMILES,Cruzain inh Det,Marburg entry inh,Cruzain noTriton,NS1 inh,StopGo reporter,SARS PLP yeast,RE007 growth inh,Lassa entry inh
O=C(c1cccn1-c1nnc(N2CCCCC2)s1)N1CCN(c2ccc(Cl)cc2)CC1,-3.0%,·,2%,·,-28%,·,·,?
COc1ccc2c(c1)C1NC(=S)NC(C)(O2)C1C(=O)Nc1ccc(Cl)cc1 (stereo unspecified),-5.5%,-11%,3%,1%,0%,-7%,-16%,2%
c1ccc(CN2CCC(=NNc3nc4ccccc4[nH]3)CC2)cc1,·,?,·,·,30%[activator],1%,-30%,?
CCOC(=O)c1c(C)[nH]c(C(=O)Cn2nnc(-c3ccc(Cl)cc3)n2)c1C,-0.6%,9%,-16%,2%,·,13%,4%,-9%
CN(C)S(=O)(=O)N1CCc2ccc(NC(=O)C3CCCO3)cc2C1 (stereo unspecified),·,2%,·,8%,24%,-11%,4%,6%
Fc1ccc(N2CCN(C(=S)NCc3ccco3)CC2)cc1,·,20%[46.1 µM],·,·,-3%,-1%,1%,7%
CCC(C)NC(=O)CSc1nnc(-c2cc(OC)c(OC)c(OC)c2)c(-c2cc(OC)c(OC)c(OC)c2)n1 (stereo unspecified),·,-12%[46.1 µM],·,0%,26%,-1%,-8%,8%[46.1 µM]
Cc1ccc(CN(C(=O)c2cccs2)C2CCS(=O)(=O)C2)cc1 (stereo unspecified),·,·,·,15%,-4%,5%,-14%,·
O=S(=O)(c1cnc(Cl)c(Br)c1)N1CCc2ccccc21,·,-1%[46.1 µM],·,4%,-17%,1%,21%,2%
Cc1ccc(NC(=O)CN2C(=O)N/C(=C/c3ccc(N4CCOCC4)cc3)C2=O)cc1,-1.4%,?,-6%,19%,50%[activator],-5%,5%,?
COC(=O)COc1ccc(S(=O)(=O)Nc2ccc(C(N)=O)cc2)cc1C,3.0%,-16%,-1%,1%,52%[activator],9%,6%,-2%
CCc1ccc(N(CC(=O)NC2CC2)S(=O)(=O)c2ccc(C)cc2)cc1,·,?,·,9%,?,-4%,-5%,?
N#C/C(=C\c1ccc(-c2cccc([N+](=O)[O-])c2)o1)C(=O)NCCN1CCOCC1,·,?,·,·,0%,-5%,3%,-27%
CC(C)(C)c1ccc(S(=O)(=O)NCCc2ccncc2)cc1,4.3%,?,-2%,-9%,51%[activator],-3%,2%,-13%
COCCn1ccc2c(OCC(=O)Nc3cccc(NC(C)=O)c3)cccc2c1=O,·,2%,·,·,-18%,-1%,24%,2%
CN(C)N1C(N)=C(C#N)C(c2ccccc2)C2=C1CC(C)(C)CC2=O (stereo unspecified),·,8%[46.1 µM],·,2%,-6%,-1%,7%,-15%
Cc1ccc(N2CC(C(N)=O)CC2=O)cc1C (stereo unspecified),-0.8%,7%,-4%,-5%,3%,3%,-23%,1%
O=C(NCCCn1ccnc1)NC(C(F)(F)F)C(F)(F)F,-2.1%,3%,-4%,-7%[9.22 µM],16%,13%,-3%,17%
O=C(Cn1cc(C(=O)c2ccco2)c2ccccc21)Nc1ccccc1C(F)(F)F,-2.3%,11%[46.1 µM],3%,·,-6%,·,·,-10%[46.1 µM]
CC(C)[N+](C)(C)CC#CC(O)(c1ccccc1)c1ccccc1,·,?,·,4%,-11%,0%,-9%,?
Cc1nn(C)cc1S(=O)(=O)NCc1ccccc1Cl,·,·,·,3%,19%,0%,-3%,·
Cc1ccc(NC(=O)CSCC(=O)Nc2cccc3ncccc23)cc1,·,-4%,·,·,-25%,-5%,6%,25%
Cc1nn(-c2ccccc2C(F)(F)F)c(=O)c2noc(C)c12,·,7%[46.1 µM],·,6%,-1%,-1%,-16%,-4%[46.1 µM]
Cc1ccc(C)c(S(=O)(=O)N2CCN(C(=O)Cn3cnc4c3c(=O)n(C)c(=O)n4C)CC2)c1,·,?,·,5%,-24%,-8%,5%,11%[46.1 µM]
CC(=O)N1CCc2c(sc(NC(=O)Cc3ccc(C)cc3C)c2C#N)C1,·,-1%[46.1 µM],·,-1%,-22%,0%,22%,?
CCOc1ccc2[nH]c(=O)c(CN(CCO)Cc3nnnn3CCc3ccccc3)cc2c1,-1.6%,1%,6%,-6%,-18%,0%,14%,10%
CCNC(=O)NC(=O)CSc1ccccc1F,1.1%,12%,7%,-4%,-11%,18%,12%,-23%
CCOc1ccc(NC(=O)NCCCn2c(C)nc3cc(C)c(C)cc32)cc1,-4.1%,?,19%,-8%,-22%,4%,12%,-5%
CCSc1nc2c(c(=O)n1CC)SC(C)C2 (stereo unspecified),5.8%,15%,6%,-16%,·,2%,-7%,14%
O=C(C=Cc1ccccc1)CC(c1ccccc1)N1CCOCC1 (stereo unspecified),·,?,·,·,?,·,?,?
CCSc1ncc(Cl)c(C(=O)Nc2nc3ccc(OC)cc3s2)n1,4.6%,19%[46.1 µM],-13%,·,-18%,·,·,23%[46.1 µM]
CC(=O)Nc1cccc(/C(C)=N/NC(=O)c2ccc(NS(=O)(=O)c3cccs3)cc2)c1,·,16%[46.1 µM],·,11%,-13%,1%,-16%,18%
Cc1ccc(C)c(OCc2nnc(SCC(=O)NCc3ccc4c(c3)OCO4)o2)c1,·,3%[46.1 µM],·,·,-6%,3%,22%,-5%
CC1(C)OC2OC(COC(=O)c3ccccc3)C3OC(C)(C)OC3C2O1 (stereo unspecified),-1.7%,-15%,-6%,-2%,46%[activator],7%,3%,23%
CCC(Oc1ccc(Cl)cc1)C(=O)N1CC(=O)Nc2ccccc21 (stereo unspecified),·,-1%,·,18%,-8%,1%,1%,-14%
Cc1ccc(NC(=O)Nc2ccc3c(c2)CCC3)cc1C,·,·,·,4%,38%[activator],4%,6%,·
O=C(NCc1ccccc1C(F)(F)F)C12CN(Cc3ccccc3)CC1C(c1ccc([N+](=O)[O-])cc1)=NO2 (stereo unspecified),-0.2%,·,-3%,?,28%,-3%,-2%,·
NC(=O)NC(Cc1ccccc1)C(=O)NCC1(N2CCCCC2)CCCCC1 (stereo unspecified),2.4%,?,-1%,-3%,-4%,?,-10%,4%
CCN1C(C(=O)c2ccccc2)=C(NC(=O)c2ccc(Cl)cc2)c2ccccc2S1(=O)=O,-4.7%,-19%[46.1 µM],-3%,·,-8%,·,·,7%[46.1 µM]
Cc1c(NC(=O)COC(=O)C2(c3ccccc3F)CCCC2)c(=O)n(-c2ccccc2)n1C,·,-12%[46.1 µM],·,·,-20%,3%,23%,-12%[46.1 µM]
O=C(Nc1ccc2c(c1)OCO2)C1CCN(S(=O)(=O)c2cccc3cccnc23)CC1,-1.8%,3%[46.1 µM],0%,-2%,9%,3%,4%,4%
CCC(C)NC(=O)c1c(F)c(F)c(F)c(F)c1F (stereo unspecified),-8.8%,19%,-7%,3%[9.22 µM],-16%,8%,-5%,0%
S=c1[nH]c2ccc(Cl)cc2[nH]1,-1.1%,-2%,-5%,-43%,0%,18%,1%,24%
COc1cccc(NC(=O)CSc2cc(=O)n(C)c3ccc(Cl)cc23)c1,-0.9%,2%[46.1 µM],-15%,·,0%,·,·,21%[46.1 µM]
CC1CN(CCOc2ccccc2C(C)C)CC(C)O1 (stereo unspecified),·,·,·,-12%,-17%,4%,-5%,·
CN(CC(=O)Nc1ccc(F)cc1)C(=O)CN1C(=O)NC2(CCCCC2)C1=O,·,15%[46.1 µM],·,·,23%,11%,-5%,3%[46.1 µM]
Cc1ccc(S(=O)(=O)N2CCC(C(=O)N3CCN(c4ccccn4)CC3)CC2)cc1,·,13%,·,-15%,-19%,-1%,-10%,-7%
CCCCOC(=O)c1ccc(NC2=NS(=O)(=O)c3ccccc32)cc1,-3.6%,7%[46.1 µM],3%,·,25%,·,·,-5%[46.1 µM]
COc1ccc(C(=O)CSc2nnc(Cn3cnc4ccccc43)o2)cc1,-8.5%,-21%,-4%,13%,?,0%,-5%,-34%
O=C(NCCN1CCOCC1)C(=O)NCc1ccco1,·,24%,·,5%,0%,0%,0%,0%

# Further entries follow:
SMILES,Cruzain inh Det,Marburg entry inh,Cruzain noTriton,NS1 inh,StopGo reporter,SARS PLP yeast,RE007 growth inh,Lassa entry inh
Cc1ccc(OCC(=O)Nc2nc(-c3ccc(Br)cc3)ns2)cc1C,-1.0%,9%[46.1 µM],26%,·,-1%,·,·,-4%[46.1 µM]
CN1CCN(c2ccc(NC(=O)COc3ccc4ccccc4c3)cc2)CC1,·,?,·,1%,3%,-2%,4%,-26%[46.1 µM]
COc1cccc(C(=O)N2CCCC(c3nc(-c4cccs4)no3)C2)c1 (stereo unspecified),-5.1%,2%,0%,?,-2%,3%,-1%,-10%
O=C(NCc1cccnc1)c1ccc(NS(=O)(=O)c2cccc([N+](=O)[O-])c2)cc1,·,19%,·,·,-9%,4%,-3%,16%
Clc1ccc(-n2ncc3c(N4CCCCCC4)ncnc32)cc1,-4.8%,·,4%,14%,?,2%,-5%,·
COc1ccc(-c2c3c(=O)n(C)c(=O)n(C)c3c3n2-c2ccccc2NC3c2ccc(OC)cc2)cc1 (stereo unspecified),-3.0%,0%[46.1 µM],-2%,·,-25%,·,·,3%[46.1 µM]
COc1ccc(CNC(=O)c2cccc(N3CCCC3=O)c2)cc1,2.2%,23%[46.1 µM],7%,-6%,-17%,7%,42%,-10%
CCCNC(=O)c1ccc(N2CCC3(CC2)CC(c2ccccc2)=NO3)c(NC(=O)c2ccco2)c1,·,·,·,8%,-14%,-6%,10%,·
CCc1nnc(N2C(=O)c3ccc(Oc4ccc([N+](=O)[O-])cc4)cc3C2=O)s1,-7.4%,-13%,3%,2%,?,-7%,-17%,11%
CCOCCCNC(=O)CN1C(=O)CSc2ccc(S(=O)(=O)N3CCOCC3)cc21,·,·,·,22%,7%,13%,-15%,·
CN(Cc1ccccc1)C1CCCN(C(=O)COc2ccccc2Cl)C1 (stereo unspecified),·,-18%,·,-2%,-21%,-7%,-24%,-3%
CCn1c(=S)sc2c(=O)n(-c3ccccc3)c(SC)nc21,-6.6%,-13%,-1%,-73%,18µM*,-7%,-7%,-3%
